# Source: PubChem
# Ba CapD inh: inhibitors of Bacillus anthracis CapD enzyme; purified CapD enzyme, fluorescence intensity read-out; hits give low values; some hits fall short of the stated cut; z-score (concentration not given with the values); 140,000 compounds, 0.23% hits;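 active = z-score under -4 in either of two replicates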;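 also: stock transfer was 100 nL into about 40 µL; score is relative to mean and spread of the plate; one replicate is shown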
# AID504770: E. coli YBA685 growth inhibition, screen for V. cholerae RctB inhibitors. AID 504770. z-score (concentration not given with the values). 130,000 compounds, 0.27% hits. E. coli YBA685 rctB-dependent plasmid, OD600 growth, 3 h; hits give low values;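 active = z-score under -2 on both plates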;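 also: wells of about 30 µL received 100 nL stock; score is relative to mean and SD of the test wells; the first replicate is given; strong numbers were not always called active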
# Active calls of the source: *; · = not tested or not shown. Random draw from the library; about 0.39% have a hit in one of these screens.
SMILES,Ba CapD inh,AID504770
CN(C)c1cccc2c(/C=N/O)ccc(N(C)C)c12,-0.855,-0.75
Cc1cc(C)c(S(=O)(=O)Nc2ccnc(-c3cccnc3)n2)c(C)c1,-0.66,·
Cc1cc(NC(=O)COC(=O)Cn2[nH]c(=O)c3ccccc3c2=O)no1,·,-0.8
N=c1sc(SCc2ccccc2)nn1CC(=O)c1ccc2c(c1)OCCO2,·,1.9
NC(=S)SC(CC(=O)c1ccccc1)c1ccsc1 (stereo not given),-0.26,0.55
CC1CCN(Cn2c(=O)n(CN3CCC(C)CC3)c3ccccc32)CC1,·,-0.1
CC1(C)CC2CC(C)(CN2c2ccc(C(F)(F)F)cc2[N+](=O)[O-])C1 (stereo not given),0.125,·
Cc1ccc2nc(NC(=O)c3ccc4c(c3)SC3=NS(=O)(=O)CCN34)sc2c1,·,0.25
CCc1nnc(NC(=O)CC(=O)Nc2ccccc2C(=O)O)s1,0.16,-0.55
Cc1nc2cc(NC(=O)Nc3ccccc3Cl)ccc2n1C,·,-0.6
CCOC(=O)C1CCN(Cn2nc(C3CC3)oc2=S)CC1,·,-0.7
O=C(COc1ccc(-c2nnco2)cc1)N1CCOCC1,·,-0.8
COc1ccc(C)cc1NC(=O)c1sc2nc(C)nc(N3CCOCC3)c2c1C,8.81,·
COCC(C)NC(=O)c1cc(-c2cccs2)on1 (stereo not given),0.66,-0.1
CCC1S/C(=N\N=C\c2ccc(O)c(OC)c2)NC1=O (stereo not given),·,1.85
COc1ccc(NC(=O)CC2NC3CCCCC3NC2=O)cc1Cl (stereo not given),·,1.45
CCS(=O)(=O)c1ccc(C(=O)N2CCOCC2)c(Cl)c1Cl,-0.955,·
CN(Cc1nc(-c2ccccc2)no1)C(=O)C(C)(C)C,·,-0.6
O=C(CN1C(=O)c2ccc(Br)cc2C1=O)NCC1CCCO1 (stereo not given),-0.09,1.65
O=c1c2c3c(sc2nc2n1CCCCC2)CCCCC3,-0.11,·
COc1cc(OC)nc(CSc2ccc(NC(=O)c3ccc(C(C)(C)C)cc3)cc2)n1,0.035,·
O=C(COC(=O)[C@@H]1CCCN1S(=O)(=O)c1ccc(Cl)cc1)Nc1ccccc1,·,-0.35
C=CCNC(=O)c1c(N)n(C2CCCCC2)c2nc3ccccc3nc12,53.5,0.05
COC(=O)/C=C1/NCC(OC(=O)c2ccc(C(C)(C)C)cc2)CNC1=O (stereo not given),-0.13,-1.1
CCOc1cc(/C=N/O)cc(I)c1O,-0.225,-0.7
CCCc1nnc(SCC(=O)O)n1N,0.125,1.9
CC1CCN(C(=O)CC#N)CC1,-0.025,·
COc1ccc(C(O)(CCN2CCOCC2)c2ccccc2)cc1 (stereo not given),0.07,-0.1
O=C(CSc1nnnn1-c1ccccc1)NC(=O)Cc1ccccc1,·,0.4
Cc1cc(-c2ccc(S(=O)(=O)N3CCCC3)cc2)nc2ccccc12,-1.05,-0.85
CC(C)CC(=O)Nc1ccc(S(=O)(=O)N2CCCCC2c2cccnc2)cc1 (stereo not given),-0.665,·
CCc1ccc(S(=O)(=O)Nc2cc3c4c(oc3c3ccccc23)CCCC4=O)cc1,-0.44,·
CC1CCc2c(sc3ncnc(Oc4ccc(NC(=O)c5ccco5)cc4)c23)C1 (stereo not given),·,0.2
O=c1[nH]c(NCCO)nc2c1C1(CCCCC1)Cc1ccccc1-2,53.1,·
CCN(CC)CCOc1ccc(Cl)cc1C,0.245,-0.8
COC(OC)c1cc(=O)[nH]c(SCc2c(Cl)cccc2Cl)n1,-0.295,-0.35
CCCOc1cccc(CN2CCCCC2c2cccnc2)c1 (stereo not given),-0.11,-0.65
O=C(CSc1nc2ccccc2c(=O)n1-c1ccc(Cl)c(Cl)c1)N1CCOCC1,0.11,-0.8
Cc1noc(N)c1-c1nc(-c2cccc(C(F)(F)F)c2)cs1,-0.19,0.15
CCC(=O)Nc1ccc2c(c1)nc1n2CCN(CCOC)C1,35.5,0.35

# Structures listed so far with a thiophene ring, fused or not:
SMILES,Ba CapD inh,AID504770
NC(=S)SC(CC(=O)c1ccccc1)c1ccsc1 (stereo not given),-0.26,0.55
COc1ccc(C)cc1NC(=O)c1sc2nc(C)nc(N3CCOCC3)c2c1C,8.81,·
COCC(C)NC(=O)c1cc(-c2cccs2)on1 (stereo not given),0.66,-0.1
O=c1c2c3c(sc2nc2n1CCCCC2)CCCCC3,-0.11,·
CC1CCc2c(sc3ncnc(Oc4ccc(NC(=O)c5ccco5)cc4)c23)C1 (stereo not given),·,0.2

# The main list resumes, starting 3 compounds before the break.
SMILES,Ba CapD inh,AID504770
O=C(CSc1nc2ccccc2c(=O)n1-c1ccc(Cl)c(Cl)c1)N1CCOCC1,0.11,-0.8
Cc1noc(N)c1-c1nc(-c2cccc(C(F)(F)F)c2)cs1,-0.19,0.15
CCC(=O)Nc1ccc2c(c1)nc1n2CCN(CCOC)C1,35.5,0.35
CC12CCC(C(=O)O)(OC1=O)C2(C)C (stereo not given),0.055,0.45
CC1=NN(C(=O)c2ccc(Br)cc2)C(O)(C(F)(F)F)C1 (stereo not given),0.045,·
CCN1CC2=C(OC(N)=C(C#N)C2c2ccc(F)cc2)/C(=C/c2ccc(F)cc2)C1 (stereo not given),-0.58,·
CCOC(=O)c1ccc(NC(=O)CSc2nc3ccccc3c(=O)n2CCC(=O)NCc2ccc(F)cc2)cc1,-1.12,·
Cc1cccc(-c2noc(COc3ccccc3)n2)c1,0.905,-0.15
CC(C)CN1C(=O)c2ccc(-c3nc4ccccc4c(=O)o3)cc2C1=O,0.835,0.35
CC(C)c1ccc(C(C2=C(O)CC(C)(C)CC2=O)C2C(=O)CC(C)(C)CC2=O)cc1 (stereo not given),-0.31,·
CC(C)(C)C1CCc2c(sc(NC(=O)CCC(=O)O)c2C(N)=O)C1 (stereo not given),-0.015,1.7
COc1ccc(/C=C2/c3cc(C)ccc3-c3nc4ccccc4cc32)cc1OC,-0.395,·
CCOC(=O)Nc1ccc2c(c1)N(C(=O)CCN1CCCCC1)c1ccccc1CC2,0.005,·
COc1cc(-c2nc(C=Nc3cccc(C(F)(F)F)c3)c(O)o2)cc(OC)c1OC,-0.69,·
CN(C)Cn1c(O)c(N=NC(=O)Sc2nc3ccccc3s2)c2ccccc21,·,0.05
O=C(O)/C=C1\SC(=O)N(c2ccccc2)C1=O,·,0.35
CCCCNS(=O)(=O)c1ccc2nc(SC(C)C(=O)N3CCCC3)[nH]c2c1 (stereo not given),·,0.85
O=S1(=O)Nc2ccc(O)c(Cl)c2-c2cc(Cl)ccc21,-0.1,·
O=C(CN1CCN(C(=O)N2CCCCC2)CC1)Nc1ccc(F)cc1,·,-0.65
O=C(NCc1ccco1)C1CCN(c2nc3ccc(Br)cc3s2)CC1,0.035,-1.05
CN(C1CCCCC1)S(=O)(=O)c1cccc2nsnc12,-0.675,·
CCOc1cc(C=C2C(=O)N(C)C(=O)N(C)C2=O)ccc1OCc1ccccc1F,0.655,·
C=CCOc1ccc2c(=O)c(Oc3cccc(C)c3)coc2c1,-0.01,0.05
Cc1ccc(Cl)cc1NC(=O)CC(C(=O)O)N(C)C (stereo not given),-0.15,1.55
COc1ccc(Nc2ncc(C)s2)cc1,·,-0.45
CC1CCC(NC(=O)C2CCCN(C(=O)c3cc4sccc4n3C)C2)CC1 (stereo not given),0.075,-0.4
O=C(NC(Cc1ccccc1)C(=O)NCCc1c[nH]c2ccccc12)OCc1ccccc1 (stereo not given),-0.015,·
O=C1c2ccccc2-c2nn(CC(=O)N3CCOCC3)c3cccc1c23,-0.635,2.2
CC(C)(C)n1ncc(O)c(Cl)c1=O,0,-1.1
COc1ccc(N2CCN(C(=O)CCC(=O)c3ccccc3)CC2)cc1,-1.53,1.8
O=C1/C(=C/c2ccc(-c3cc(Cl)ccc3Cl)o2)C=C(c2ccccc2)N1c1ccccc1O,-0.29,·
CCCCC(CC)n1[nH]c(=O)cc1N (stereo not given),-0.335,-0.4
C=CCn1c(=S)sc2c(=O)n(Cc3ccc(C#N)cc3)cnc21,·,-0.6
CCS(=O)(=O)c1ccc(-c2cccc(NC(=O)c3ccc(Br)o3)c2)nn1,·,0.05
O=C(c1ccccc1Cl)N1CCC(N(C2CC2)S(=O)(=O)c2ccccc2)CC1,-0.47,·
CC(C(=O)Nc1ccc(S(=O)(=O)N2CCCCC2)cc1)N(C)Cc1nc2ccccc2c(=O)[nH]1 (stereo not given),·,-1.05
O=C(c1cnc2n(c1=O)CCS2)N(c1ccccc1)C1CCCCC1,0.485,0.35
CCN(N)C(=S)Nc1ccccc1,·,-0.8
Cn1c(C(O)c2ccccc2)n[nH]c1=S (stereo not given),·,-0.1
Cc1ccc(C)c(S(=O)(=O)Nc2cc(Cl)c3oc(=O)sc3c2)c1,-0.045,-0.95
Cc1cc(C)c2oc(-c3ccc(N/C=c4\c(C)c(C#N)c5nc6ccccc6n5c4=O)cc3)nc2c1,15.4,1.8
CCN(CC)C(=O)CSc1nnc2c3ccccc3n(C)c2n1,·,-2.05
CC(C=C1C(=O)NC(=S)NC1=O)c1ccccc1 (stereo not given),-1.67,·

# Retrieved one by one from the list above (4):
SMILES,Ba CapD inh,AID504770
COc1cc(-c2nc(C=Nc3cccc(C(F)(F)F)c3)c(O)o2)cc(OC)c1OC,-0.69,·
CCC(=O)Nc1ccc2c(c1)nc1n2CCN(CCOC)C1,35.5,0.35
O=C(O)/C=C1\SC(=O)N(c2ccccc2)C1=O,·,0.35
CC12CCC(C(=O)O)(OC1=O)C2(C)C (stereo not given),0.055,0.45

# Next structures.
SMILES,Ba CapD inh,AID504770
C=CC1=C(C(=O)O)N2C(=O)[C@@H](NC(=O)/C(=N/OCC(=O)O)c3csc(N)n3)[C@H]2SC1 (stereo in doubt),0.06,·
Cc1ccc(S(=O)(=O)N2CCN(C(=O)COC(=O)C3=COCCO3)CC2)c(C)c1,·,-0.55
COc1ccc2c(c1)-c1c(ssc1=S)C(C)(C)N2C(=O)CN1C(=O)CCC1=O,0.16,·
C[C@@H](C(=O)N1CCSC1=NCc1ccccc1)N1C(=O)C2CC=CCC2C1=O (stereo not given in full),·,0.05
Cc1cc(/C=C2\C(=O)NC(=S)N(c3ccccc3F)C2=O)c(C)n1-c1cc(C(=O)O)cc(C(=O)O)c1,-9.12*,·
O=C(NC1CCCC1)C(c1ccc(N2CCOCC2)cc1)N(Cc1ccco1)C(=O)c1ccco1 (stereo not given),·,-1.6
Cc1ccc(-c2noc(CNC(=O)CN(C)S(=O)(=O)c3ccc(C)cc3)n2)cc1,-1.65,-1.15
CC1CN=C(Nc2ccc(Cl)cc2)S1 (stereo not given),-0.45,·
Cc1ccc(S(=O)(=O)NC(=O)n2cc(-c3cnccn3)c(-c3ccncc3)n2)cc1,0.31,·
CN1C2=NC(=O)/C(=C/c3ccc([N+](=O)[O-])s3)N2c2ccccc21,0.14,·
CSc1nc2ccccc2n1CC(=O)N1CCN(c2ccccc2)CC1,·,-0.2
Cn1ccnc1SCC(=O)Nc1ccc(S(=O)(=O)Nc2ncccn2)cc1,0.195,-0.7
Clc1ccc(CSCc2cn3ccsc3n2)cc1,·,-0.9
Nc1c(S(=O)(=O)c2ccccc2)c2nc3ccccc3nc2n1/N=C/c1ccncc1,·,-2.7
O=S(=O)(c1cccs1)N1CCN(c2cnccn2)CC1,·,-0.75
COc1ccc2c(OC)ccc3c2c1C=CC3=O,-1.79,-0.45
OCCC12CC3CC(CC(C3)C1)C2,1.23,-0.6
Cc1ccccc1Nc1nc(CSc2nnc(CN3CCCC3=O)o2)cs1,·,0.05
c1ccc(-n2cnnc2SCc2nc3ccccc3s2)cc1,·,0.4
C=CCN=C1NC(=O)C(CC(=O)Nc2ccccc2)S1 (stereo not given),1.08,-0.3
COc1ccc(C(=O)NNC(=O)OCC(C)Cl)cc1 (stereo not given),0.3,·
CCN(CC)CCCNC(=O)c1sc2ncnc(N3CCN(c4ccccc4)CC3)c2c1C,-0.735,·
COC(=O)c1ccc([C@@H]2Nc3c(C)cccc3[C@@H]3C=CC[C@@H]32)cc1,0.475,0.1
CS(=O)(=O)n1c(SCc2cccc([N+](=O)[O-])c2)nc2ccccc21,-0.68,·
Cc1ccc(SC2=C(N3CCOCC3)C(=O)N(c3cc(C)cc(C)c3)C2=O)cc1,7.12,0
COC(=O)C(C)Nc1n[nH]c(=O)[nH]c1=O (stereo not given),·,-0.65
COC(=O)c1sccc1NC(=O)CCCC(=O)O,·,-1.2
COC(=O)c1sc(S(=O)(=O)NC(C)C(=O)O)c(C(=O)OC)c1C (stereo not given),-0.245,0
c1ccc(CCn2c3ccccc3c3nc4ccccc4nc32)cc1,0.815,0.6
CCOC(=O)N1c2ccccc2Sc2ccccc21,·,-0.6
Cn1nc(C(=O)N2CCC(C(N)=O)CC2)c2ccccc2c1=O,·,-0.1
CN1CCN(c2ccc3c(ccc4c5ccccc5[nH]c34)n2)CC1,82.6,0.25
Cc1ccnc(NC(=O)Nc2ccccc2)c1,-0.205,-0.75
CCn1c(CCNC(=O)Cc2c(F)cccc2Cl)nnc1SC,·,-0.1
COC(=O)c1sccc1Oc1ccc(C(F)(F)F)cc1NC(=O)Nc1ccc(Cl)cc1,-0.17,-0.05
COc1ccc(-c2oc(/N=C/c3ccc([N+](=O)[O-])cc3)c(C#N)c2-c2ccc(OC)cc2)cc1,-0.36,·
COC(=O)c1ccc(C(c2c(N)n(CC(C)C)c(=O)[nH]c2=O)N2CCOCC2)cc1 (stereo not given),·,-0.25
CCOC(=O)C1CCCN(C(=O)c2ccc(CS(=O)c3ccccc3)o2)C1 (stereo not given),0.085,-0.3
N=C1S/C(=C\c2ccc(-c3ccc(F)c(Cl)c3)o2)C(=O)N1c1nccs1,-0.1,·

# Ordered by molecular weight (smallest number first): part of the list above
SMILES,Ba CapD inh,AID504770
COC(=O)c1ccc([C@@H]2Nc3c(C)cccc3[C@@H]3C=CC[C@@H]32)cc1,0.475,0.1
CCn1c(CCNC(=O)Cc2c(F)cccc2Cl)nnc1SC,·,-0.1
CS(=O)(=O)n1c(SCc2cccc([N+](=O)[O-])c2)nc2ccccc21,-0.68,·
